Assay outcomes as filed in PubChem BioAssay.
CtBP-E1A inh = inhibitors of CtBP/E1A interaction | AlphaScreen GST-E1A/His-CtBP binding, 1536-well; stronger effect = lower value; control for the full effect not named in the record | activity change, % (test concentration not listed) | 0.49% of 340,000 active; in the data active means activity change below about -65%; inconclusive means about -30% to -65%; inactive means above about -30%; also: % is scaled to controls: 0 for no effect and ±100 for the full control effect; compound concentration not given in the record
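AlphaScreen with 125 nM GST-E1A and 125 nM His-CtBP (5X stocks) in Tris pH 8.0, 300 mM NaCl, BSA, Tween 20, TCEP. Compounds preincubated 2 h at 37 deg C, then glutathione donor/nickel acceptor beads added for 1 h at 37 deg C in dark.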
ClpP mod = qHTS Assay for Activators of ClpP | purified B. subtilis ClpP, FRET peptide cleavage, 20 min | Potency, µM (top dose mostly 57.5 µM), inactives show at the top dose activity change, negative = active | 1.9% of 340,000 active; active = well fitted falling curve with a large enough effect; inconclusive = small, poorly fitted or top-dose-only effect; inactive = no such curve, though single readings can be large or run the other way; also: potency is read from the fitted curve at half-maximal effect; the source files actives as falling curves though it sought activators and does not explain the sign; nearly all actives have a fitted effect of over 65% in size; many hits overshoot -100%
Target sequence (P80244 whole entry, looked up): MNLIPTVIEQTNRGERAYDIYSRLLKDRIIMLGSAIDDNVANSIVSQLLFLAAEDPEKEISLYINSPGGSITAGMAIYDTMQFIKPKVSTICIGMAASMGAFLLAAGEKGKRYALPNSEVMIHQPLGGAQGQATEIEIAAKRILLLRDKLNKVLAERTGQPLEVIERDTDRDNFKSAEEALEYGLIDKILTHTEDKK
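FRET quenching reversal measured ClpP activation: 10 microg/mL B. subtilis ClpP at pH 8 with the FRET-FV decapeptide, read at 430 nm after 320 nm excitation. The 20-min minus 0-min signal was scaled between DMSO/no-enzyme wells and ADEP (5.8 microM final).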
Sfp PPTase inh = inhibitors of Bacillus subtilis Sfp phosphopantetheinyl transferase. Potency, µM, inactives show max response, negative = inhibition, actives largely listed as inhibitors. Biochemical Sfp PPTase activity, qHTS. 3.5% of 310,000 active. Q9F4F7; active = well fitted inhibition curve with a large enough effect; inconclusive = small, poorly fitted or top-dose-only effect, or another doubt; inactive = no such curve, though single readings can be large or run the other way;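 also: the enzyme is Sfp with the accession as filed and its product quenches rhodamine fluorescence; potency is read from the fitted curve at half-maximal effect; 0% = enzyme reaction without inhibitor and -100% = no enzyme wells; top concentration of the series not given in the record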
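Reaction rates are the 30-min fluorescence difference (ex 525, em 598 nm) in wells containing 15 nM Sfp, 5 uM rhodamine-CoA and 12.5 uM BHQ-2-YbbR at pH 7.6 with 10 mM MgCl2.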
TRPV1 PAM = enhances activation of the human vanilloid receptor TRPV1. Q8NER1. TRPV1-expressing cells, Fluo-8 calcium influx, capsaicin EC20 potentiation; host cell line not named in the record; control for the full effect not named in the record. potentiation, % at 8.33 µM. 0.02% of 320,000 active. AID 540277; active means potentiation above 80%; inconclusive means 30% to 80%; inactive means below 30%; also: 0% is about no effect
Target sequence (Q8NER1 whole entry, looked up): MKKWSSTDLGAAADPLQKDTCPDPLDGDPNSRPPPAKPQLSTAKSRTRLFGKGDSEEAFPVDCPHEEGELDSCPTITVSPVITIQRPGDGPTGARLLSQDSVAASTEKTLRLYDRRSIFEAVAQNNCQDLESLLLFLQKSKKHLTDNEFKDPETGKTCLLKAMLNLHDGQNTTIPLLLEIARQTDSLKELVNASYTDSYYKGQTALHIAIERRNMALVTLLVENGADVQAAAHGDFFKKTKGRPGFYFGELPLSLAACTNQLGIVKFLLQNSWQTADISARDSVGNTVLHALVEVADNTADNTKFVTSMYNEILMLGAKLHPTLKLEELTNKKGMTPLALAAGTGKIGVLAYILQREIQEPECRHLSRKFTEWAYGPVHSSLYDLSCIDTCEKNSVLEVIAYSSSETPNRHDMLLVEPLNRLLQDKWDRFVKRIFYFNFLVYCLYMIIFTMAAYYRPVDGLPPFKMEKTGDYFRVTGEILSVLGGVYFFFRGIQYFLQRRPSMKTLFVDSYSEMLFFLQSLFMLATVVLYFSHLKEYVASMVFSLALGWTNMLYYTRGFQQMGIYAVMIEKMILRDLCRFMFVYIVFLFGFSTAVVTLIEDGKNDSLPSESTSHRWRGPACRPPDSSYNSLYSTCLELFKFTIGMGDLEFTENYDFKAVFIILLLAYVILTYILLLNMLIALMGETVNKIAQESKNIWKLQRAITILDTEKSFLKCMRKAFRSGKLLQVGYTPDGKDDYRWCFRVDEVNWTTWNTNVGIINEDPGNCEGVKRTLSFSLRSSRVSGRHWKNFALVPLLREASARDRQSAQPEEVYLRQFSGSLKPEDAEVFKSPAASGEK
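TRPV1-expressing cells were cultured overnight at 35.5C and loaded with Fluo-8 calcium dye for 40 to 90 min at room temperature. After a 10 s baseline, compound was added and calcium influx was read kinetically for 3 min (ex 480/em 520 nm).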
gsp antag = antagonizes gsp, the McCune-Albright syndrome mutation; AID 624288; gsp-mutant cells, cAMP HTRF, 30 min; control for the full effect not named in the record; Potency, µM (top dose mostly 76.9 µM), for inactives: at the top dose activity change, negative = inhibition, usual class: inhibitors; 0.4% of 340,000 active; active = falling curve of any shape with a large fitted effect; inconclusive = falling curve, mostly with a smaller effect; inactive = flat or rising curve; cell line not stated here;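 also: intracellular cAMP measured with PDE inhibitor Ro 20-1724 present during compound exposure; potency is read from the fitted curve at half-maximal effect; % is scaled to controls: 0 for no effect and ±100 for the full control effect; nearly all actives have a fitted effect of over 65% in size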
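HTRF cAMP read-out (cAMP-d2 plus anti-cAMP antibody-K in lysis buffer, 30 min RT). Before lysis, cells are exposed to compounds with […] for 30 min at 37C in DPBS containing Ca/Mg, BSA and Tween 20.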
Menin-MLL FL inh = inhibitors of human menin-MLL interaction, wild-type MLL peptide; Fluorescence polarization, fluorescein-MLL peptide displacement from menin; FP activity change, % at 61.4 µM; 290,000 tested, under 10 active; AID 1766; inconclusive = falling polarisation curve, or a change in total fluorescence; inactive = total fluorescence flat and polarisation flat or rising; no compound was filed as active; the % refers to the polarisation; negative = inhibition;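 also: % of control where 0% means no effect; inhibitors lower the polarisation; unlabelled MLL peptide was the positive control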
gsp ag = agonists of gsp mutant (McCune-Albright syndrome) | gsp mutant cells, cAMP HTRF, 30 min; control for the full effect not named in the record | Potency, µM (titrated, usually from 76.9 µM), for inactives: at the top dose activation (cAMP increase), usual class: activators | 0.13% of 340,000 active; active = well fitted activation curve with a large enough effect; inconclusive = small, poorly fitted or top-dose-only effect, or another doubt; inactive = no such curve, though single readings can be large or run the other way; cell line not stated here;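 also: phosphodiesterase inhibitor Ro 20-1724 added with compounds to block cAMP breakdown; potency is read from the fitted curve at half-maximal effect; nearly all actives have a fitted effect of over 60% in size; about a fifth of the inactives were tested at one dose only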
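Cells stably selected in G418 were plated at 2000/well, grown 16-24 hr, then given compounds in DMSO with the PDE inhibitor […] (300 uM solution added) for 30 min at 37C; cAMP was read by HTRF.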
* = called active by the depositor; ? = inconclusive; nt = no result given; & = joins results of further samples; [ ] = another dose, or the depositor's remark.

Every second line gives: CtBP-E1A inh, ClpP mod, Sfp PPTase inh, TRPV1 PAM, gsp antag, Menin-MLL FL inh, gsp ag
> CCc1ccc(NC(=O)Cn2ccn(-c3cccc(Cl)c3)c(=O)c2=O)cc1
    4, ?, 18%, ?, 7%, 1.4, ?
> CCN1C(=O)/C(=C/C=C2\N(CC)c3cc(S(=O)(=O)N(C)C)ccc3N2c2ccccc2)SC1=S
    -4, 1.2%, ?, 19, -8%, ?, -6%
> Cc1ccc(CN(C)C(=O)c2cccc(S(=O)(=O)N3CCc4ccccc4C3)c2)o1
    -2, -0.5%, nt, -12, -1%, nt, -21%
> Cc1cc(C(=O)COC(=O)/C=C/c2ccc(F)cc2)c(C)n1C
    7, 1.5%, nt, 3, -4%, nt, -41%[inhibitor]
> CCN(CC(=O)Nc1c(F)cccc1F)C(=O)c1ccc(NC(=O)CC2SC(N3CCCC3)=NC2=O)cc1 (stereo not given)
    7, 0.6%, nt, 0, 8%, nt, -32%
> CC(=O)Nc1ccc(/C=N/NC(=O)CNS(=O)(=O)c2ccccc2)cc1
    7, nt, 6%, -23, -13%, -3.4, 5%[15.4 µM]
> CSc1ncccc1C(=O)OCC(=O)N1CCN(S(=O)(=O)c2ccc(C)cc2C)CC1
    0, 1.3%, nt, 1, -6%, nt, 12%
> Cn1c(SCC(=O)c2ccc3c(c2)OCCO3)nnc1C1CC1
    4, 1.6%, 71µM*, 6, 7%, -1.2, -1%
> Cc1nc2ccccc2c(=O)n1/N=C/c1ccc(F)cc1
    5, -1.0%, -1%, -13, 6%, 1.4, 19%
> CC(C)NC(=O)Nc1ccc2c(c1)C(=O)N([C@@H](C)CO)C[C@H](C)[C@H](CN(C)S(=O)(=O)c1ccccc1)OCCCC[C@H](C)O2
    2, -6.4%, nt, nt, nt, nt, -30%[inhibitor]
> CCOC(=O)C1(Cc2cccc(Cl)c2)CCCN(C(=O)c2cc(C)[nH]n2)C1 (stereo not given)
    2, 28µM*, 6%, 1, -1%, nt, 17%[15.4 µM]
> COC(C[C@H]1O[C@H]1C(=O)[C@H](C)OCc1ccccc1)OC
    -7, -3.3%, nt, nt, 12%, nt, ?
> COc1ccccc1-n1cnc2cc(C(=O)N3CCOCC3)ccc21
    -2, -2.5%, 4%, 5, 9%, nt, 2%
> CC1CN(CCOCCOc2ccccc2-c2ccccc2)CC(C)O1 (stereo not given)
    nt, -0.2%, 45µM*, -3, 0%, -1.7, 20%
> CCC1(CC)NC(=O)N(CC(=O)N2CCN(c3ccccc3F)CC2)C1=O
    nt, -1.2%, nt, -3, 5%, nt, -18%
> COc1cccc(CNC(=O)CCS(=O)(=O)Cc2ccc(C)cc2)c1
    4, nt, 18%, -27, 2%, nt, 15%
> Cc1cc(=O)oc2c(C)c(OC(C)C(=O)NC(Cc3c[nH]c4ccc(O)cc34)C(=O)O)ccc12 (stereo not given)
    -6, 4.5%, 1%, -10, -1%, 2.7, nt
> CN(CC(CC(=O)Nc1nncs1)c1ccccc1)S(=O)(=O)c1ccc(Br)cc1 (stereo not given)
    -3, -1.0%, 4%, nt, -14%, -0.5, -2%
> CC(=O)Oc1c(C)c(C)c2c(c1C)CCC(C)(CCCC(C)CCCC(C)CCCC(C)C)O2 (stereo not given)
    -18, -1.8%, 35%&7%&8%[activator], -1, 2%, 1.7&-27&-1.1, nt
> C=CCN([C@H](C(=O)OC)C(C)C)S(=O)(=O)CCNCc1ccccc1
    1, 0.5%&1.9%, nt, nt, 0%, nt, nt
> CCOc1ccc(NC(=O)CN(c2ccc(C)cc2)S(=O)(=O)c2c(C)nn(C)c2C)cc1
    nt, 0.7%, 8%, -1, -4%, nt, -17%
> COc1cc(C(=O)NC2CCN(Cc3ccccc3)CC2)cc(Cl)c1OC
    nt, -1.2%, 4%, -9, 1%, -5.7, -18%
> COc1ccc(N2CCN(C(=O)c3ccccc3NC(=O)c3ccccc3)CC2)cc1
    -2, -0.9%, 2%, -3, -7%, -1.0, -10%
> O=C(CSc1ccc(-c2ccccc2)nn1)N1CCN(c2ccccc2)CC1
    -4, -3.7%, 79µM*, ?, 2%, ?, 7%
> CN(C)C(=O)CCc1ccc2c3c([nH]c2c1)[C@]1(CCC2CCCC2)[C@@H](C(=O)N2CCOCC2)C[C@H](CC(=O)NC(C)(C)C)C(=O)N1CC3
    -7, -6.7%, nt, nt, -3%, nt, nt
> COc1ccccc1NS(=O)(=O)c1ccc(Br)s1
    -10, -2.3%, 9%, -2, -15%, 0.6, -2%
> COc1ccc(CNC(=O)C[C@H]2C[C@H](C(=O)N3CCCCC3)[C@@]3(CCc4ccccc4)c4[nH]c5cc(-c6ccco6)ccc5c4CCN3C2=O)cc1OC
    -22, 3.7%, nt, nt, -5%, nt, nt
> O=C(NCC1CCCN(C(=O)Cc2ccccc2Cl)C1)c1ccc(F)cc1 (stereo not given)
    -13, -3.3%, 8%, -36, -8%, nt, 0%
> c1ccc(-n2ncc3c(N4CCCCC4)ncnc32)cc1
    -8, -3.2%, -7%, nt, -1%, 0.5, 22%
> CCOC(=O)C1=C[C@]2(CC)CCCN3CCc4c(n1c1ccccc41)[C@@H]32
    2, -12%, -26%&-4%, -21, -8%, -4.5&-5.9&-3.8, nt
> C/C(=N\NC(=O)C1COc2ccccc2O1)c1cc2ccccc2o1 (stereo not given)
    -4, nt, 13%, -2, -8%, -4.2, 10%
> COc1cc(Cl)c(C)cc1NC(=O)COC(=O)c1ccc(CN2CCCC2=O)cc1
    1, 6.8%, nt, -14, -23%, nt, 0%
> O=C(N1CCCCC1)N1CCN(S(=O)(=O)c2cccc([N+](=O)[O-])c2)CC1
    nt, 1.7%, 7%, -4, -12%, nt, -4%
> CCn1c2ccccc2c2nnc(SCC(=O)Nc3ncccn3)nc21
    2, -0.8%, 12%, 20, 25%, 2.9, ?
> CCOC(=O)C1C(=O)CC(C)(O)C(C(=O)OCC)C1c1ccc(OC)cc1 (stereo not given)
    1, 0.8%, 1%, 12, 9%, -2.1, -15%
> O=C(Cn1ncc2c(=O)oc3ccccc3c21)Nc1nc2ccccc2s1
    nt, nt, 5%, -14, nt, -5.1, nt
> COc1ccc(CCNc2cc(N3CCN(C(=O)c4ccc(C)cc4)CC3)ccc2[N+](=O)[O-])cc1OC
    nt, nt, 1%, -2, nt, 0.2, nt
> Cc1c(Cl)cccc1NC(=O)CSc1ccc(-c2cccnc2)nn1
    1, 0.8%, 19%, 13, 8%, -1.1, ?
> Nc1c(C(=O)N2CCOCC2)sc2nc3c(cc12)CCCC3
    13, nt, 5%, -6, -6%, 0.6, 4%[15.4 µM]
> O=C(CSC1=NS(=O)(=O)c2cc(F)ccc2N1)NCc1ccc(F)cc1
    1, 0.9%, nt, ?, 7%, nt, 4%
> CC1C(=O)Nc2ccccc2N1C(=O)c1cccc(C(F)(F)F)c1 (stereo not given)
    nt, 2.5%, 3%, 4, -3%, 4.0, -20%
> Cc1ccc(-c2csc(NC(=O)c3cnccn3)n2)cc1C
    0, nt, 7%, ?, 3%, -1.0, -17%[15.4 µM]
> CC[C@@]12C(=O)N(c3ccc(OC)cc3)C(=O)N1[C@H](c1cccc(C)c1)[C@@H]1C(=O)N(Cc3ccccc3)C(=O)[C@@H]12
    0, 0.8%, 11%, -20, -6%, 6.5, nt
> CCN1CCN(CC(=O)N2c3ccccc3CC2C)CC1 (stereo not given)
    -10, 1.4%, -22%, -1, 3%, 0.2, -29%
> CCn1c(SCc2ccc(C(=O)OC)o2)nnc1-c1c[nH]c2ccccc12
    1, -0.3%, 2%, -12, -9%, -0.1, -38%[inhibitor]
> COC(=O)c1ccccc1OC(=O)c1cc[n+]([O-])cc1
    -2, 1.6%, 17%, 6, -4%, -1.3, 25%
> Cc1ccc2c(c1)N(CC(=O)Nc1c(C)cccc1C)C(=O)c1cccnc1O2
    -5, -0.2%, 13%, -10, -20%, 0.7, 2%
> Cc1ccccc1OCC(=O)Nc1ccc2c(c1)ncn2C
    -4, -1.3%, nt, 21, -2%, nt, 21%
> CCC(Sc1ncccn1)C(=O)Nc1cc(C)on1 (stereo not given)
    -4, -3.8%, 10%, -16, 3%, -5.5, -36%
> CCOC(=O)c1c(C)[nH]c(C(=O)NCc2ccccn2)c1C
    1, nt, nt, 5, -4%, nt, 4%[15.4 µM]
> COc1ccccc1/C=C/c1nc(S(=O)(=O)c2ccccc2)c(N(C)C)o1
    8, 3.2%, -22%, 13, -18%, 2.0, 16%

Full records from above. Order of values: CtBP-E1A inh	ClpP mod	Sfp PPTase inh	TRPV1 PAM	gsp antag	Menin-MLL FL inh	gsp ag
COc1ccccc1/C=C/c1nc(S(=O)(=O)c2ccccc2)c(N(C)C)o1 in the list: 8	3.2%	-22%	13	-18%	2.0	16%
Cc1ccccc1OCC(=O)Nc1ccc2c(c1)ncn2C in the list: -4	-1.3%	nt	21	-2%	nt	21%
COC(=O)c1ccccc1OC(=O)c1cc[n+]([O-])cc1 in the list: -2	1.6%	17%	6	-4%	-1.3	25%
CCOC(=O)c1c(C)[nH]c(C(=O)NCc2ccccn2)c1C in the list: 1	nt	nt	5	-4%	nt	4%[15.4 µM]
Cc1ccc2c(c1)N(CC(=O)Nc1c(C)cccc1C)C(=O)c1cccnc1O2 in the list: -5	-0.2%	13%	-10	-20%	0.7	2%
